Screening data (PubChem)
KSHV LANA nucl = inhibitors of KSHV LANA binding to nucleosomes | FITC-LANA1-23 / chicken nucleosome fluorescence polarization; hits give low values | z-score (test concentration not listed) | AID 720717 | 0.3% of 51,000 active;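 active = both repeat wells score below -2 in polarization z-score versus plate sample wells, excluding overly bright wells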;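 note: 100 nL library stock added to about 30 µL; numbers are from one replicate; some results filed as inactive read as strong as hits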
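Assay system: purified chicken nucleosomes with FITC-labelled LANA N-terminal peptide (1-23) / Probe or stimulus: 50 nM FITC-LANA1-23 probe / Compound dosing: pin-transferred compound, 100 nL / Times: compound with peptide–nucleosome mix 10–45 min at room temperature / Technique: fluorescence polarization, 480 nm excitation, 535 nm parallel and perpendicular emission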
Ab BasE inh = inhibitors of Acinetobacter baumannii siderophore enzyme BasE. purified BasE, fluorescence polarization binding displacement. inhibition, % (concentration not given with the values). AID 485350. 0.1% of 84,000 active;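 active = both replicates above 25% with normal brightness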;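 note: 0% = negative plate control signal and 100% = positive plate control signal; stock transfer was 100 nL into about 30 µL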
Numbers without * were called inactive; . = not tested or not shown.

SMILES	KSHV LANA nucl	Ab BasE inh
Cc1cc2c3c([nH]c2cc1S(=O)(=O)NCCCc1ccco1)CCCC3=O	-0.298	-1.8
O=C(CN1CCN(c2ccc(O)cc2)CC1)N(C1CCCCC1)C1CCS(=O)(=O)C1 (stereo not given)	.	0.5
CC(=O)NC(Cc1ccccc1)C(=O)NC1CCN(c2nnnn2-c2ccccc2)CC1 (stereo not given)	-0.601	-1.6
S=C1NCN(CCc2ccccc2)CN1CCCN1CCOCC1	-0.534	-0.5
CC1=Nc2ccccc2NC(=O)C1Sc1nc2ccccc2s1 (stereo not given)	.	-0.7
CC1=C(C(=O)OC2CCCC2C)C(c2ccc(Cl)cc2)NC(=O)N1 (stereo not given)	-0.337	0.0
CCN(C(=S)NC(=O)C1CCCC1)C1CCCCC1	.	0.6
COC(=O)c1cc(COC(=O)c2cc3ccccc3cc2O)oc1C	.	-0.9
CC12CC3CC(C)(C1)CC(C(=O)NN)(C3)C2	.	-5.3
CC(OC(=O)Cc1ccc(F)cc1)C(=O)Nc1ccc(S(N)(=O)=O)cc1 (stereo not given)	.	-0.8
COc1ccc(CCNC(=O)C2c3ccccc3C(=O)N2C2CCCC2)cc1OC (stereo not given)	-0.671	-0.6
COc1ccc(-n2nnnc2SC(C)C(=O)Nc2ccc(S(=O)(=O)N3CCOCC3)cc2)cc1 (stereo not given)	.	2.8
Cc1ccc(S(=O)(=O)NC(C)C(=O)N2CCN(c3cccc(Cl)c3)CC2)cc1 (stereo not given)	0.677	-1.9
CC1CCCC(NC(=O)COC(=O)CSc2nnc(-c3ccc(Cl)cc3)o2)C1C (stereo not given)	.	0.9
O=c1cc(-c2ccccc2)nc(N2CCN(Cc3ccc4c(c3)OCO4)CC2)[nH]1	0.671	4.0
CC(=O)Nc1ccc(Oc2cncc(Cl)c2)nc1	.	0.2
Cc1ccc(NC(=O)CNC(=O)C23CC4CC(CC(C4)C2)C3)c(O)c1	.	1.6
C=CCN1C(=O)C(O)(c2sc(N3CCOCC3)nc2C)c2ccccc21 (stereo not given)	.	-0.7
O=C(Nc1ccccc1OC(F)F)C12CC3CC(CC(O)(C3)C1)C2	.	1.5
CC1CCCC(C)N1NC(=O)c1cccc(S(=O)(=O)N2CCc3ccccc32)c1 (stereo not given)	.	-1.1
O=C(NCCCN1CCN(c2ccccc2F)CC1)C1C2C=CC3(CN(Cc4ccccc4Cl)C(=O)C13)O2 (stereo not given)	0.649	-0.1
CSc1n[nH]c(NC2=CC(=O)CCC2)n1	0.73	-0.6
CC(=O)N1CCN(Cc2csc(-c3ccc(F)cc3)n2)CC1	.	1.6
COc1ccccc1C(=O)Nc1ccc2c(C)cc(=O)oc2c1	-0.222	1.0
CC(C)N(Cc1nc2ccccc2c(=O)[nH]1)C(=O)c1cccc(C#N)c1	.	1.5
CC(C)(C)c1csc(=Nc2ccc(F)cc2F)o1	.	1.6
O=C(OC1OCCOC1OC(=O)c1ccc(F)cc1)c1ccc(F)cc1 (stereo not given)	.	-0.1
Cc1[nH]c2ccccc2c1C(=O)CN1C(=O)NC(CC(C)C)C1=O (stereo not given)	.	0.6
COc1ccc(C(=O)COC(=O)c2oc3ccccc3c2C)cc1OC	.	2.8
CCOC(=O)C1CCN(C(=O)c2ccccc2NC(=O)C2=CSCCO2)CC1	-1.56	1.5
Cc1cc(-c2cc(N)n(-c3ccccc3)n2)c(C)n1-c1ccccc1F	.	1.0
COC(=O)c1c(CSc2nnc(-c3ccc(OC(F)F)cc3)o2)nc2ccccc2c1C	.	-1.4
CC(C)CNS(=O)(=O)c1ccc(S(=O)(=O)N2CCCN(Cc3ccccc3)C2)cc1	0.116	1.6
CNc1nc(SCC(=O)OC)nc(N2CCOCC2)n1	2.02	-2.2
Cc1ccc(N2CC(C(=O)Nc3ccc(S(=O)(=O)NC4CCCCC4)cc3)CC2=O)cc1 (stereo not given)	0.0455	0.6
O=C1C2=C(CCCC2)C(=O)N1CNc1ccccc1	.	2.1
O=c1c(-c2ccccc2)[n+]([O-])c2ccccc2n1OCc1ccccc1	.	2.0
CCCCC(=O)Nc1nnn(CCC)n1	-1.38	-0.8
CC1CCN(C(=O)Cn2ncc3c2-c2ccccc2OC3)CC1	-1.4	-2.3
COCCNC(=O)c1cc(-c2ccccc2)n[nH]1	.	-1.5
N#C/C(C(=O)NCc1ccccc1)=C(/O)CN1C(=O)c2ccccc2C1=O	.	1.3
COc1cc(CNC(=O)CCCC/C=C\C(C)C)ccc1O	0.559	.
CCCN1CCN(CCCNC(=O)Nc2ccc3c(c2)N(Cc2ccc(C)cc2)C(=O)CS3)CC1	0.63	0.3
Cc1cc(C)n(CCCC(=O)NCCn2nccc2C)n1	-0.7	2.0
O=C1C2CNC3(C(=O)Nc4ccccc43)C2C(=O)N1Cc1ccccc1 (stereo not given)	0.529	0.2
Cc1nnc2ccc(NN)nn12	0.399	1.1
CC(C(=O)Nc1ccc2c(c1)OCO2)N(C)Cc1c(F)cccc1Cl (stereo not given)	.	2.9
O=C(O)CNc1ccc(-n2ccnc2)nn1	0.0055	-0.6
N/C(=N\OC(=O)N1CCOCC1)c1ccccc1	-0.843	2.5
Cc1ccc(CN(C)C(=S)NCc2ccccc2)o1	.	2.5
O=S(=O)(Cc1ccccc1)N1CCC(c2nc(-c3cccs3)no2)CC1	0.58	-3.1
N#C/C(=N\Nc1ccc(S(=O)(=O)N2CCCCC2)cc1)C(N)=S	.	1.4
NNC(=S)NC1CCCCCCCCCCC1	.	1.2
Clc1ccc(N=C2SCC3CCCCN23)cc1 (stereo not given)	.	1.6
COc1ccc(C(=O)C(CN2CCCCC2)c2ccccc2)cc1 (stereo not given)	1.84	-6.1
COc1ccc(CC(=O)N2CCCC2c2nnc(SCc3ccccc3)n2C)cc1 (stereo not given)	-0.503	-1.3
CCn1c(N2CCN(CC(=O)c3ccc(OC)cc3)CC2)nc2ccccc21	-1.41	-2.3
CN(C)c1ccc(NC(=O)CSc2nc(N)cc(=O)[nH]2)cc1	0.149	1.5
O=C(Nc1cc(Cl)cc(Cl)c1)N1CCC(n2cccc2)CC1	.	-2.1
CCOc1ncccc1C(=O)Nc1ccnn1Cc1ccccn1	.	-0.9
Continued:
SMILES	KSHV LANA nucl	Ab BasE inh
COc1ccc2c(c1)-c1c(ssc1=S)C(C)(C)N2C(=O)CSc1nc2ccccc2o1	-0.667	0.3
O=C(NC1CCCC1)c1cc2c(=O)n3ccccc3nc2nc1NCC1CCCO1 (stereo not given)	0.613	-0.3
O=c1c(-c2ccc(F)cc2)coc2c3c(ccc12)OCCO3	.	0.0
CCC(=O)N=c1sc2cc(S(N)(=O)=O)ccc2n1CCOC	2.13	-3.7
O=C(Nc1ccc(N2CCCCC2)cc1)c1ccccn1	.	0.9
CC(/C=C/c1ccccc1)=N\n1c(C)cc(C)c(C#N)c1=O	.	-0.1
Cc1nc2ccc3nc(NC(=O)c4ccccc4C)sc3c2s1	.	-0.3
Cc1c(N(C)S(=O)(=O)c2cccc(C(=O)Nc3ccccc3N3CCOCC3)c2)c(=O)n(-c2ccccc2)n1C	.	1.3
CCCCN1C(=O)C(NC(C)=O)c2cc(Cl)ccc21 (stereo not given)	1.92	-4.6
CC(=O)OCC1OC(OC(C)(C)C)C(OC(C)=O)C(OC(C)=O)C1OC(C)=O (stereo not given)	-1.48	-1.4
COc1cc(OC)cc(C(=O)N2CCN=C2c2ccccc2)c1	.	-3.0
CCCn1cnc(N)n1	-0.142	-0.1
O=C(Cc1cccc(F)c1)NCC(c1cccs1)N1CCOCC1 (stereo not given)	.	0.6
CCCCN(C)C(=O)c1cc(-c2ccc(OC)cc2)n[nH]1	-1.26	-2.0
CCc1cccc(CC)c1N=C=S	.	4.0
CCOC(=O)c1c(CSc2n[nH]c(=O)n2CC)nc2ccccc2c1C	.	0.3
COC(=O)c1ccc(COC(=O)C2COc3ccccc3O2)cc1 (stereo not given)	.	2.8
Cc1ccc(N=Cc2c(O)n(C)c3ccccc23)cc1	.	-4.0
CCN(C1CCCCC1)S(=O)(=O)c1ccc(S(=O)(=O)NC2CC2)cc1	0.118	-0.8
COc1ccc(OC(=O)Nc2ccccc2)cc1	-0.616	0.1
CC(C)Oc1ccc(C(=O)N2CCCC2C(=O)O)cc1 (stereo not given)	-1.42	0.9
CCOC(=O)N1CCN(CC(=O)c2ccc(O)c(C)c2O)CC1	-0.264	1.0
CC(=O)Nc1ccc(S(=O)(=O)C(C#N)c2nc3ccccc3nc2NCCN2CCOCC2)cc1 (stereo not given)	.	0.8
C=C1CCC(OC(C)=O)C2(C)CCC3C(C)C(=O)OC3C12O (stereo not given)	0.534	0.1
O=C(/C=C/c1ccco1)NC(=S)NC12CC3CC(CC(C3)C1)C2	0.621	1.9
Cc1ccc(S(=O)(=O)C2(C(=O)O)CC2)cc1C	0.613	0.3
O=C(NC(C(=O)c1ccccc1)n1cccnc1=O)c1ccccc1 (stereo not given)	0.488	-0.6
Cc1ccc(/C=N/N=C2/NC(=O)CS2)o1	-0.161	0.1
Cc1ccc(-c2nnc(Nc3ccccc3)c3ccccc23)cc1S(=O)(=O)N1CCCCC1	.	2.6
COC(=O)c1cc(-c2ccc(N)cc2)nc2ccc(C)cc12	2.9	-4.8
C=CCNC(=O)CN1C(=O)C(CC)Oc2ccccc21 (stereo not given)	-0.47	-0.5
CCCCN1C(=O)c2ccc(C(=O)C(C#N)c3nc4ccccc4n3C)cc2C1=O (stereo not given)	.	10.7
CC1CC(C)CN(CCN)C1 (stereo not given)	-0.142	-1.5
CCCN(C(=O)c1ccccc1N)c1c(C)n(C)n(-c2ccccc2)c1=O	-0.482	0.0
Cc1ccc(-n2c(N)c(C(N)=O)sc2=S)cc1C	-0.123	4.9
COc1ccc(C)cc1-n1nnnc1SCc1nc2sc3c(c2c(=O)[nH]1)CCC3	.	1.6

Quoted from the listing:
Ab BasE inh result of COc1ccc(C)cc1-n1nnnc1SCc1nc2sc3c(c2c(=O)[nH]1)CCC3 : 1.6
Ab BasE inh result of Cc1ccc(-n2c(N)c(C(N)=O)sc2=S)cc1C : 4.9

Next records
SMILES	KSHV LANA nucl	Ab BasE inh
CC1=CC(C)=NS(=O)(=O)N1	.	-0.2
CCOC(=S)SCc1c(C)c(C)c(C)c(C)c1C	.	3.1
COc1ccc(-n2nc(C(=O)NCc3ccco3)c3c4ccccc4n(C)c3c2=O)cc1	-0.272	1.2
Cc1nsc(Nc2ccccc2)c1C#N	.	-0.1
CC(C)(C)c1ccc(-c2nnc(SCc3cccc(C(N)=O)c3)n2-c2ccc3c(c2)OCO3)cc1	.	1.0
CC(Oc1ccc(C#N)cc1)C(=O)NN (stereo not given)	.	0.1
CC1CN(C(=O)c2ccccc2Nc2ccc(SC(F)F)cc2)CC(C)O1 (stereo not given)	.	-1.3
COc1ccccc1-n1c(C23CC4CC(CC(C4)C2)C3)n[nH]c1=S	.	2.2
CCc1ccc(N2CC(C(=O)OCC(=O)Nc3ccccc3)CC2=O)cc1 (stereo not given)	0.29	-3.9
CC1C(c2ccccc2)N(C)C(c2ccccc2)CC1(O)c1ccc(F)cc1 (stereo not given)	-0.258	.
CC1(C)CN(c2cccc(C#N)c2)C1=O	-0.642	.
CSc1nnc(C2CCCN(C(=O)N(c3ccccc3)c3ccccc3)C2)n1C (stereo not given)	-0.879	0.1
O=C(OC1CCCCC1=O)C1CCN(S(=O)(=O)c2cccs2)CC1 (stereo not given)	.	-0.9
O=C(Cc1ccc(Cl)cc1)Nc1ccccn1	.	0.0
COc1ccc(S(=O)(=O)N2C3CCC2CC(NC(=O)C2CC2)C3)cc1 (stereo not given)	-0.484	1.3
C#CCSc1n[nH]c(C(C)(C)C)n1	0.044	-1.2
O=C(COC(=O)c1cccc(S(=O)(=O)N2CCCC2)c1)Nc1cccc(F)c1	.	-0.2
CC(OC(=O)/C=C/c1ccco1)C(=O)Nc1cccc(C(F)(F)F)c1 (stereo not given)	.	-0.3
COc1ccc(/C=C/C(=O)NC2CC2)cc1	1.25	-5.9
COc1ccc(Nc2[nH]nc(NC(=O)c3ccc(S(=O)(=O)N(C)C)cc3)c2C#N)cc1	.	0.0

Structural class: the compounds so far containing a Cl atom (10)
SMILES	KSHV LANA nucl	Ab BasE inh
CC1=C(C(=O)OC2CCCC2C)C(c2ccc(Cl)cc2)NC(=O)N1 (stereo not given)	-0.337	0.0
Cc1ccc(S(=O)(=O)NC(C)C(=O)N2CCN(c3cccc(Cl)c3)CC2)cc1 (stereo not given)	0.677	-1.9
CC1CCCC(NC(=O)COC(=O)CSc2nnc(-c3ccc(Cl)cc3)o2)C1C (stereo not given)	.	0.9
CC(=O)Nc1ccc(Oc2cncc(Cl)c2)nc1	.	0.2
O=C(NCCCN1CCN(c2ccccc2F)CC1)C1C2C=CC3(CN(Cc4ccccc4Cl)C(=O)C13)O2 (stereo not given)	0.649	-0.1
CC(C(=O)Nc1ccc2c(c1)OCO2)N(C)Cc1c(F)cccc1Cl (stereo not given)	.	2.9
Clc1ccc(N=C2SCC3CCCCN23)cc1 (stereo not given)	.	1.6
O=C(Nc1cc(Cl)cc(Cl)c1)N1CCC(n2cccc2)CC1	.	-2.1
CCCCN1C(=O)C(NC(C)=O)c2cc(Cl)ccc21 (stereo not given)	1.92	-4.6
O=C(Cc1ccc(Cl)cc1)Nc1ccccn1	.	0.0

The list is partial (hit frequency here may not be typical).
